Rango complex inh: prevents formation of the Rango-importin beta complex. Q14974. Rango CFP/YFP FRET sensor + importin beta, 45 min. Potency, µM (top dose mostly 92.2 µM), without a hit: at the highest dose inhibition of complex formation. 340,000 tested, 0.031% active. AID 540263; active = rising FRET ratio curve, often small or poorly fitted; inconclusive = mostly compound fluorescence or quenching in the first reads; inactive = flat curves in all reads;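 note: potency is the fitted concentration of half-maximal effect; 0% = DMSO wells and 100% = buffer wells lacking importin beta; nearly all actives have a fitted effect of over 15% in size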
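FRET biosensor Rango (snurportin 1 IBB between N-terminal EYFP and C-terminal Cerulean), 50 nM in PBS/1 mM DTT/0.02% Tween-20/0.1% BSA, preincubated 5 min RT with compound; 0.125 microM importin beta added, 45 min RT, CFP/YFP FRET ratio read.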
miR-21 reporter: raises the signal of a miR-21 reporter | HeLa miR-21 FLuc reporter, luciferase, 48 h | Potency, µM (doses to about 38.3 µM), without a hit: at the highest dose reporter change, positive = more light | 340,000 tested, under 10 active | AID 2288; active = well fitted rising curve with a large enough effect; inconclusive = small, poorly fitted or top-dose-only effect; inactive = no such curve, though single readings can be large or run the other way;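 note: % of control where 0% means no effect; miR-21 action dims this reporter so a rising signal means less miR-21 action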
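Luminescence from a firefly luciferase reporter carrying a miR-21 binding site downstream, stably expressed under a CMV promoter in HeLa cells that make miR-21 endogenously, reports miRNA modulation after 48 h compound exposure up to approximately 40uM final.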
Rango release inh: inhibition of RanGTP-driven Rango-importin beta dissociation | Biochemical FRET Rango-importin beta, RanGTP-induced dissociation | 340,000 tested, 0.071% active | AID 540253 | Potency, µM (doses to about 46.1 µM), for the others: top-dose activity change, negative = inhibition; active means falling FRET ratio curve, often poorly fitted, with flat reads before Ran was added; inconclusive means other falling curves, or compound fluorescence or quenching; inactive means flat or rising ratio curve;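 note: potency is the fitted concentration of half-maximal effect; % of control where 0% means no effect; nearly all actives have a fitted effect of over 45% in size; -100% = wells without RanGTP and RCC1; the record marks most hits as doubtful in a second field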
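FRET read at 45 min, room temperature: inhibitors block the CFP/YFP signal rise when RanGTP (0.6 uM Ran, 2 mM GTP, 0.2 uM RCC1) frees Rango (0.1 uM) from importin beta (0.25 uM). Pre-read after 5 min compound exposure flags interference.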
GLA inh pH 4.5: blocks human alpha-galactosidase A at pH 4.5; purified enzyme, 4-MU-alpha-Gal fluorescence, pH 4.5; 230,000 tested, under 10 active; P06280; activity change, negative = inhibition, % at 105 µM; inconclusive = small, poorly fitted or top-dose-only inhibition, or a rising curve; inactive = flat fitted curve, though single readings scatter; no compound was filed as active;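 note: 0% = full activity with enzyme and -100% = basal without enzyme; dose as in the result columns while the protocol names 77 µM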
Target sequence (P06280 whole entry, looked up): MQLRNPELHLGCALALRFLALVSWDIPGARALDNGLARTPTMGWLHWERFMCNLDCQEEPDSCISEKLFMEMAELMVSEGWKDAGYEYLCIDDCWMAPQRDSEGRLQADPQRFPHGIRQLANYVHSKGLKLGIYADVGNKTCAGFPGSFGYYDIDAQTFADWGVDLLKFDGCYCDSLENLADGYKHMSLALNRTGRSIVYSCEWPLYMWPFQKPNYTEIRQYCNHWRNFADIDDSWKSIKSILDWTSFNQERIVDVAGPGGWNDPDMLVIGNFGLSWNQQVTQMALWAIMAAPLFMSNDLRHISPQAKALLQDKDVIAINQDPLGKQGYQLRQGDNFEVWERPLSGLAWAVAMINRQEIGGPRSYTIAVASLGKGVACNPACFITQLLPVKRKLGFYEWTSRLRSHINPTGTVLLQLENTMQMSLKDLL
* marks the source's active call; other numbers are inactive results; ? = inconclusive; . = no result given. The list is partial, so the mix of outcomes need not match the whole.

Results follow in this order: Rango complex inh | GLA inh pH 4.5 | miR-21 reporter | Rango release inh
COc1ccccc1OCCCC(=O)Nc1ccc(N2CCOCC2)cc1
  -0.7% | -3 | -8% | -5%
COc1cccc(/C=C2/Sc3ccc(C(=O)NCCCN4CCCC4)cc3NC2=O)c1
  4.9% | . | -7% | -10%
Cc1ccnc(N2CCC(C(=O)NCc3ccc(F)cc3)CC2)n1
  -0.6% | 5 | 0% | -10%
C=C[C@H](CC(C)C)N(Cc1ccccc1)S(=O)(=O)N(Cc1ccc(OC)cc1)[C@H](C=C)CC(C)C
  -0.3% | . | . | -9%
CCn1ncc(-c2ccnc3cc(C(=O)O)nn23)c1C
  -3.6% | 17 | 0% | -4%
O=c1c2cc(O)c(O)cc2oc2cc(O)c(C3OC(CO)C(O)C(O)C3O)c(O)c12 (stereo not drawn)
  ? | 1 | . | ?
COCCCn1[nH]c2c3c(ccc2c1=O)C(=O)c1ccccc1C3=O
  -1.8% | -4 | -17% | 2%
CC(C)(C)CC(=O)NC(=S)NCc1ccco1
  1.3% | -1 | 0% | 18%
c1cncc(-c2noc(-c3cccc4ccccc34)n2)c1
  -3.8% | -7 | -55% | -1%
O=C(NC1CCC(O)CC1)c1ccccc1OCc1ccc(F)cc1 (stereo not drawn)
  3.0% | . | -14% | 3%
COc1ccc(-c2cc(-c3c(O)c(OC)c4occc4c3OC)[nH]n2)cc1
  0.6% | -2 | -16% | 0%
Cn1nc(C(=O)Nc2ccccc2Cl)cc1C(=O)Nc1ccccc1Cl
  5.8% | . | . | 3%
COCCC(=O)Nc1c(-c2ccccc2)c2cc(Br)ccc2[nH]c1=O
  0.7% | . | 4% | 5%
CCc1nc(C)ccc1OCC(=O)N(CC)CC
  -1.7% | 5 | 3% | 5%
Cc1nc(C(=O)Nc2ccccc2)sc1C1(C)CC(c2cccc([N+](=O)[O-])c2)=NO1 (stereo not drawn)
  -6.2% | 1 | -7% | 13%
CC(C)(C)OC(=O)N(CCc1ccccc1)Cc1ccccc1OCc1ccc(NC(=O)C2CCCC2)cc1
  -1.0% | . | . | 10%
S=c1nc(-c2ccccc2Cl)n(Cc2cccnc2)c2c1CCCC2
  -3.1% | -5 | -2% | 0%
c1ccc2c(c1)CCN(c1ncnc3c1[nH]c1ccccc13)C2
  3.4% | -4 | ? | 7%
CC(C)(C)NC(=O)COC(=O)CCC(=O)c1ccc(Cl)cc1
  -0.3% | 3 | 0% | 34%
CC1(C)OC2CCN3C(C(O)COS3(=O)=O)C2O1 (stereo not drawn)
  3.8% | . | -1% | -2%
CCn1cc(/C=N/NS(=O)(=O)c2ccc(OC)cc2)c(C)n1
  -0.1% | 0 | 0% | -4%
O=C(NC1CCCC1)c1ccc(CS(=O)(=O)c2ccc(Br)cc2)o1
  0.5% | 7 | -3% | -16%
Cc1ccc(-c2cc(C(F)F)n3ncc(C(=O)N4CCN(c5cccc(C)c5C)CC4)c3n2)cc1
  ? | 1 | -1% | -9%
CC(C)Cn1c(SC(C)C(=O)Nc2ccc3c(c2)OCCO3)nc2ccccc2c1=O (stereo not drawn)
  2.8% | -2 | -9% | -5%
CC(C)Cn1c(N)c(C(=O)COC(=O)COc2cccc(C(F)(F)F)c2)c(=O)n(C)c1=O
  -3.8% | . | 1% | 19%
CCOc1cccc(CNCCO)c1OCc1ccc(Cl)cc1
  -1.0% | 2 | 1% | 7%
COCCCNC(=O)c1cccc2c(=O)c(C)c(-c3ccccc3)oc12
  2.4% | -12 | -1% | -2%
Nc1[nH]nc2nc(-c3ccccc3)[nH]c(=O)c12
  -1.8% | -2 | 5% | -14%
Cc1cccc(CC(=O)NCC2CCCCC2)c1
  2.5% | . | -47% | 30%
COc1cccc2sc(=NC(=O)CS(=O)(=O)c3ccc(F)cc3)n(C)c12
  4.8% | . | . | -2%
O=c1oc2ccccc2c(O)c1C=Nc1cccnc1
  -3.4% | 5 | 0% | -12%
CC(C)c1nc(-c2ccccn2)no1
  0.2% | 6 | -17% | -13%
Cc1ccc(C(=O)NNC(=O)CSc2nnc(C3CC3)n2C)cc1
  -5.7% | . | -4% | 0%
O=C(c1cc(F)ccc1F)C1CCCN(C(=O)CCCN2CCCCC2=O)C1 (stereo not drawn)
  -0.4% | -2 | -4% | -4%
O=C(Cc1ccccc1)c1c[nH]c(C(=O)C(Cl)(Cl)Cl)c1
  7.7% | . | 15% | ?
CCN(C[C@H]1N[C@@](Cc2ccccc2)(C(=O)OC)[C@H]2C(=O)N(Cc3ccccc3)C(=O)[C@@H]12)C(=O)Nc1ccc(Cl)cc1
  ? | . | . | 0%
CC(C)(C)c1ccc(C(=O)NNC(=O)Cc2cccc3ccccc23)cc1
  -2.4% | -1 | -1% | 5%
O=[N+]([O-])c1cccc(/C=C/c2ccc3cccc(O)c3n2)c1
  -5.0% | . | -53% | -6%
O=C(Cn1cnc2ccccc21)Nc1ccc2c(c1)OCCCO2
  -0.3% | . | . | 4%
CCOc1ccc(N(CC(=O)O)S(=O)(=O)c2cccnc2)cc1
  -0.6% | -1 | -2% | -1%
O=C(COc1nsnc1N1CCOCC1)N/N=C/c1ccccc1O
  ? | -5 | 12% | ?
Cn1c(SCc2ccon2)nc2ccccc2c1=O
  -1.0% | 0 | -6% | -6%
Cn1c(=O)c(=O)n(C)c2cc(S(=O)(=O)N3CCOc4ccccc43)ccc21
  -5.0% | . | -6% | -23%
CCOC(=O)c1cccc(NC(=O)C(C)N2C(=O)c3ccccc3C2=O)c1 (stereo not drawn)
  4.3% | 4 | -2% | -10%
COc1cc2c(cc1OC)C(C)N(C(=O)c1cc(C)on1)CC2 (stereo not drawn)
  2.6% | . | 21% | -16%
Cc1ccccc1NC(=O)C(Cl)=C(Cl)Cl
  -2.6% | 13 | ? | 13%
C=CCNC(=S)Nc1ccc(OC(F)F)c(Cl)c1
  1.0% | 2 | 7% | 15%
Cc1ccc(NCc2ccccc2O)cc1C
  -0.9% | 0 | -45% | -8%
CCOC(=O)N1CCN(C(=O)/C=C/c2cccc([N+](=O)[O-])c2)CC1
  0.1% | -16 | -2% | 10%
CCCCN(C(=S)Nc1cccc(SC)c1)C1CCN(C(C)=O)CC1
  -0.1% | 3 | -2% | -12%

Random excerpt: two records from the list, in no set order.
Results follow in this order: Rango complex inh | GLA inh pH 4.5 | miR-21 reporter | Rango release inh
O=C(COc1nsnc1N1CCOCC1)N/N=C/c1ccccc1O
  ? | -5 | 12% | ?
COc1cc2c(cc1OC)C(C)N(C(=O)c1cc(C)on1)CC2 (stereo not drawn)
  2.6% | . | 21% | -16%

Later entries:
Results follow in this order: Rango complex inh | GLA inh pH 4.5 | miR-21 reporter | Rango release inh
CCOc1ccc(-c2nc(CSc3nnc(N)s3)cs2)cc1
  ? | 0 | -44% | -11%
N#C/C(=C\c1coc2ccc(O)cc2c1=O)C(=O)Nc1nc2ccccc2s1
  ? | -10 | -24% | ?
Cn1c(SCC(=O)N/N=C/C=C/c2ccco2)nc2ccccc21
  -0.4% | 3 | -8% | -18%
CCN1CC2=C(OC(N)=C(C#N)C2c2ccccc2)/C(=C\c2ccccc2)C1 (stereo not drawn)
  ? | -6 | 21% | ?
O=C1CC(NS(=O)(=O)c2cccnc2)CN1c1ccccc1 (stereo not drawn)
  0.4% | . | . | 0%
COc1ccc(CCNC(=O)C(=O)NCC2CCCO2)cc1 (stereo not drawn)
  -0.6% | 1 | -3% | 6%
Cc1ccccc1OCC(=O)NNC(=S)NC(=O)c1ccccc1[N+](=O)[O-]
  -4.2% | -13 | -7% | -2%
O=S(=O)(/N=C(\Sc1ccccc1)c1ccccc1)c1ccc(Cl)cc1
  5.7% | 5 | 0% | 15%
CS(=O)(=O)c1ccc(Cl)c(NC(=O)Cc2ccsc2)c1
  -3.4% | . | -4% | -1%
Cn1cccc1CNCC(O)c1ccccc1 (stereo not drawn)
  3.8% | . | -7% | -6%
COCCC(=O)N1CCC(Oc2ccc(C(=O)N3C[C@@H]4CCC[C@H]3C4)cc2)CC1
  2.0% | . | -1% | 7%
COc1ccc(-c2cc(CNS(=O)(=O)c3cc(OC)ccc3OC)on2)cc1
  1.0% | . | 6% | -3%
CCOC(=S)SCC(=O)Nc1nc(-c2ccccc2)cs1
  -0.7% | -5 | 20% | -6%
CC(C)(C)c1cc(NS(=O)(=O)c2cccs2)no1
  3.1% | . | -6% | 10%
Cc1cccc(OCC(=O)O/N=C(\N)Cc2cccs2)c1
  0.4% | . | -3% | -11%
COc1ccc(/C=N/n2c(N)nc3ccccc32)cc1OC
  0.2% | 0 | -78% | -2%
CCNC(=S)N1CCc2cc(OC)c(OC)cc2C1COc1ccc(OC)cc1 (stereo not drawn)
  13% | -5 | -13% | 29%
CCn1c(SCC(=O)Nc2ccccc2C(=O)OC)nc2c1c(=O)n(C)c(=O)n2C
  . | 8 | -8% | .
C=CCn1c(=O)c2ccccc2n2c(SCC(=O)NC)nnc12
  -3.3% | . | 1% | -1%
COc1ccc(S(=O)(=O)N2CCOC2CNC(=O)C(=O)NCCCN2CCOCC2)cc1 (stereo not drawn)
  -0.4% | . | -2% | -11%
COc1ccc(CNC(=O)C(C)NS(=O)(=O)c2ccc(C)cc2)cc1 (stereo not drawn)
  -4.5% | 3 | -4% | 1%
C=CS(=O)(=O)c1ccc(Oc2ccc(S(=O)(=O)C=C)cc2)cc1
  -5.6% | -1 | ? | -16%
OCCC1CN(Cc2ccc3cccc(F)c3n2)CCN1Cc1ccccc1 (stereo not drawn)
  -0.6% | . | 3% | -9%
O=C(N/N=C/c1ccc2c(c1)OCO2)c1ccc(COc2cccc3cccnc23)cc1
  -2.3% | -15 | -18% | 17%
COc1ccc(OCCOCCN2CCN(C)CC2)cc1
  -0.4% | . | -1% | 21%
O=C(CN(Cc1ccccc1)C(=O)c1cc2c(s1)CCC2)NCc1cccs1
  -0.2% | -7 | 0% | 1%
CSCC[C@H](NC(=O)N1CCn2c1nc1ccccc12)C(=O)NCc1ccccc1
  0.8% | . | -2% | 17%
O=C(NCCc1ccccc1)c1ccc2c(c1)OCO2
  0.1% | . | 29% | -5%
COc1ccc(NC(=O)CSc2nc(N)c(NC(=O)c3cccs3)c(=O)[nH]2)cc1
  -3.3% | -1 | 2% | 3%
COc1ccc(C2(C)NC(=O)N(CC(=O)Nc3c(C)n(C)n(-c4ccccc4)c3=O)C2=O)cc1 (stereo not drawn)
  0.5% | . | . | 30%
O=S(=O)(NCCN1CCOCC1)c1ccc(Oc2ccccc2Cl)cc1
  -0.2% | . | 11% | -27%
Nc1c(C(=O)Nc2ccc(Br)cc2)sc2nc(-c3ccco3)ccc12
  ? | -3 | 0% | ?
O=C(Cn1c(=O)oc2ccccc21)NCCc1ccccc1Cl
  2.1% | 5 | -8% | 8%
Cc1cc(C)cc(NC(=S)N2CCN(S(C)(=O)=O)CC2)c1
  -2.3% | . | 1% | 0%
O=C(NN=C1CCN(Cc2ccccc2)CC1)c1cc2ccccc2cc1O
  ? | -3 | -13% | -22%
COc1ccc(Cl)cc1NC(=O)CN1CCN(S(=O)(=O)N2CCOCC2)CC1
  -0.2% | . | -1% | -2%
CC12CCC(C(=NO)C1=NO)C2(C)C (stereo not drawn)
  0.4% | . | . | 6%
N=c1ccn(Cc2ccc([N+](=O)[O-])cc2)cc1
  4.5% | 2 | 4% | -18%
COc1ccc(CNS(=O)(=O)CCNC(=O)c2ccc(OC)cc2)cc1
  0.1% | . | . | 0%
O=C1c2cccc3cccc(c23)C(=O)N1CCN1CCN(C(=S)Nc2ccc(Cl)cc2)CC1
  -0.1% | -3 | -4% | 2%
CC(C)(O)C#Cc1ccc(CN2CCN(C3CCCCC3)C(CCO)C2)s1 (stereo not drawn)
  0.3% | 0 | 4% | -6%
CCN(CC)CCn1nc(C)nc1-c1ccccc1O
  6.6% | -1 | -6% | -6%
O=C(CCc1nc(-c2ccccc2)no1)NCCc1ccccc1
  0.0% | -17 | -7% | -9%
Cc1nc2c(C)cccc2cc1C(=O)N/N=C/c1ccc(O)cc1
  -1.2% | -2 | 24% | -15%
COc1ccc(-c2noc(=O)n2Cc2cc(C)ccc2C)cc1
  -2.3% | 7 | 0% | 0%
O=C(N/N=C/c1ccc(O)c(O)c1)C1CC1
  -0.6% | . | . | 5%

Compound activity (PubChem BioAssay)
